TRPML1 inh – inhibitors of human TRPML1 channel. TRPML1-inducible cells, Ca2+ dye fluorescence, FDSS; active compounds read low; inhibition of EC80 agonist-evoked calcium signal. Q9GZU1. hit rate 0.02% among 390,000. activity change, negative = inhibition, % (test concentration not listed); in the data active means activity change below about -50%; inconclusive means about -30% to -50%; inactive means above about -30%;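 also: stimulus is agonist 54-4 at its EC80 concentration; % is scaled to controls: 0 for no effect and ±100 for the full control effect; compound concentration not given in the record; the text of the record puts the active cut at -80%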
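Tet-induced TRPML1-DL cells loaded with Ca8 no-wash calcium dye were read kinetically on FDSS. Compound addition was followed by EC80 agonist 54-4 (4 uM final); inhibition was read over 110 s.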
TRPML1 ag – agonists of human TRPML1 channel; activation, % (test concentration not listed); TRPML1-expressing cells, Ca2+ dye fluorescence, FDSS; host cell line not named in the record; reference of the full effect not given here; hit rate 0.12% among 410,000; in the data active = activation above about 50%; inconclusive = about 30% to 50%; inactive = below about 30%; also: 0% is about no effect; the text of the record puts the active cut at 80%
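Agonist activity was taken from a 110 s kinetic Ca2+ dye read on the FDSS after pinning compounds onto TRPML1-DL cells. The cells were seeded at 1,500/well with Tet inducer, incubated about 16 h, then dye-loaded at room temperature.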
TRPV1 PAM – potentiators of human vanilloid receptor 1 (TRPV1); hit rate 0.02% among 320,000; TRPV1-expressing cells, Fluo-8 calcium influx, capsaicin EC20 potentiation; host cell line not named in the record; control for the full effect not named in the record; potentiation, % at 8.33 µM; AID 540277; active means potentiation above 80%; inconclusive means 30% to 80%; inactive means below 30%; also: 0% is about no effect
Target sequence (Q8NER1 whole entry, looked up): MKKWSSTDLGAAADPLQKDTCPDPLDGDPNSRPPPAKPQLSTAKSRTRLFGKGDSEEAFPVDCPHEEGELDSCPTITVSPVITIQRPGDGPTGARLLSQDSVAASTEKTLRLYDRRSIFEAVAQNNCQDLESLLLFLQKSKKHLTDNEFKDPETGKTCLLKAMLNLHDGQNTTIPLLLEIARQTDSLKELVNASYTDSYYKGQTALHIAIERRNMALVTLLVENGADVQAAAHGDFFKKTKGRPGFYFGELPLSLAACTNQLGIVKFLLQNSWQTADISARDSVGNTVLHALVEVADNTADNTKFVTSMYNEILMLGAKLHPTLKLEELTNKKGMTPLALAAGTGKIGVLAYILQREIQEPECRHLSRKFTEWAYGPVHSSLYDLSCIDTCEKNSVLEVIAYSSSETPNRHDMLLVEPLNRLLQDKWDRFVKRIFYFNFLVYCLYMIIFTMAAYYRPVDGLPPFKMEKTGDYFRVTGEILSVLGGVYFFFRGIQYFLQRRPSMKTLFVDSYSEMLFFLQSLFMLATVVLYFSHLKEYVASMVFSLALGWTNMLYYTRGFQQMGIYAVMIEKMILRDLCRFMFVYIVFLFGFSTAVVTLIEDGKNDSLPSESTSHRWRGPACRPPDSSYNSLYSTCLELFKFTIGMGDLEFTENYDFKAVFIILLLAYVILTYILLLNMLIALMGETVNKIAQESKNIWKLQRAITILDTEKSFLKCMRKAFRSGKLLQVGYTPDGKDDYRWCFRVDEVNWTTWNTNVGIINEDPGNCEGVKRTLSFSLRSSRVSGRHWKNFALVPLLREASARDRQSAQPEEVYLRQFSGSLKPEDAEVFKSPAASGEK
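Cells expressing TRPV1 were dye-loaded with Fluo-8 and read kinetically: 10 s baseline, 3 min after compound (agonist portion), then 2 min after EC20 capsaicin (allosteric enhancer portion). Calcium-bound dye fluorescence at 480/520 nm.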
CtBP-E1A blk – blocks the CtBP interaction with E1A | hit rate 0.49% among 340,000 | AID 651724 | AlphaScreen GST-E1A/His-CtBP binding, 1536-well; active compounds read low; control for the full effect not named in the record | activity change, % (test concentration not listed); in the data active means activity change below about -65%; inconclusive means about -30% to -65%; inactive means above about -30%; also: % is scaled to controls: 0 for no effect and ±100 for the full control effect
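Protein mix (5X: 125 nM each GST-E1A, His-CtBP) was incubated with pinned compound 2 h at 37 deg C in dark, in 50 mM Tris pH 8.0 buffer with 300 mM NaCl. Glutathione donor and nickel acceptor beads followed; AlphaScreen signal read after 1 h.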
D2 potentiator – positive allosteric modulators of human D2 dopamine receptor; P14416; DiscoveRx D2 beta-arrestin cells, luminescence, 90 min; 100% = 57 uM dopamine signal; potentiation, % (concentration not given with the values); hit rate 0.23% among 360,000; active = potentiation of 50% or more; inconclusive = 30% to 50%; inactive = 30% or less;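 also: compound concentration not given in the record; tested on top of an EC20 dose of dopamine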
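PathHunter D2 cells, attached overnight at 37 deg C, received compound in DMSO plus dopamine at EC20 (50 nM final) for 90 min at 37 deg C. Beta-arrestin recruitment was read as luminescence after 1 h with detection reagent at ambient temperature.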
Six1-Eya2 blk – Six1/Eya2 interaction inhibition; AlphaScreen GST-Six1/His-Eya2 binding, biochemical; active compounds read low; control for the full effect not named in the record; AID 651725; Q15475+O00167; hit rate 0.56% among 360,000; activity change, % (concentration not given with the values); in the data active = activity change below about -65%; inconclusive = about -30% to -65%; inactive = above about -30%; also: % is scaled to controls: 0 for no effect and ±100 for the full control effect
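AlphaScreen with GST-Six1 and His-Eya2 (5X mix: 250 nM and 500 nM), glutathione donor and nickel acceptor beads; buffer 50 mM Tris pH 8.0, 300 mM NaCl, 1 mM TCEP; 1 h at 37 C in the dark.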
* = called active by the depositor; ? = inconclusive; . = no result given; & = joins results of further samples. Compounds as they come (roughly 0.95% active in at least one column).

Sample of the layout:
No.	Molecule	TRPML1 inh	TRPML1 ag	TRPV1 PAM	CtBP-E1A blk	D2 potentiator	Six1-Eya2 blk
1	CC(=O)c1cccc(Nc2nc3ccccc3n3cnnc23)c1	47	1.2	-4	-17	8	-18
2	CCN(CC)C(=O)/C=C/c1ccccc1	-9	0.0	-7	6	-6	8

The list itself, from the first entry:
No.	Molecule	TRPML1 inh	TRPML1 ag	TRPV1 PAM	CtBP-E1A blk	D2 potentiator	Six1-Eya2 blk
1	CC(=O)c1cccc(Nc2nc3ccccc3n3cnnc23)c1	47	1.2	-4	-17	8	-18
2	CCN(CC)C(=O)/C=C/c1ccccc1	-9	0.0	-7	6	-6	8
3	CCOC(=O)c1c(C)[nH]c(C)c1S(=O)(=O)NC(C)Cc1ccco1 (stereo not given)	3	-0.1	?	.	-8	-3
4	CCc1nc(SCC(=O)Nc2ccccc2Cl)n[nH]1	-10	0.6	-3	-2	0	5
5	N#Cc1ccc(S(=O)(=O)N2CCN(C(=O)C3CC(=O)N(c4ccc5c(c4)OCCO5)C3)CC2)cc1 (stereo not given)	-8	-0.3	12	24	-1	4
6	CCn1cc(C(=O)NC(=S)Nc2sc3c(c2C(=O)OC)CCCCCC3)cn1	-22	0.5	-8	0	-18	20
7	C=CCn1c(C(C)NC(=O)c2ccccc2C)n[nH]c1=S (stereo not given)	34	-0.4	7	-3	-17	2
8	O=C(c1cccc([N+](=O)[O-])c1)N1CCN(C(=O)c2ccco2)CC1	-6	-0.6	18	3	-5	0

The results go on.
No.	Molecule	TRPML1 inh	TRPML1 ag	TRPV1 PAM	CtBP-E1A blk	D2 potentiator	Six1-Eya2 blk
9	C/C(=N\OCC(=O)OC(C)C(=O)Nc1ccc(C(N)=O)cc1)c1ccc2c(c1)OCO2 (stereo not given)	-2	0.2	-11	0	4	5
10	Cc1nn(CC(=O)N(C)C)c(=O)c2ccccc12	2	-0.3	-1	5	4	3
11	COc1ccc(/C=N/NC(=O)c2ccc(-n3cnnn3)cc2)cc1	-4	0.9	-21	7	1	-8
12	CCOC(=O)C1CCCN(C(=S)NC2CCCC2)C1 (stereo not given)	10	-0.2	5	4	2	4
13	COc1ccc(CNC(=O)CCCn2nc(C)n3c(cc4sccc43)c2=O)cc1	3&-4	0.6&0.8	21	-9	-2	-3
14	Cc1c(NC(=O)Nc2ccc(Cl)cc2Cl)c(=O)n(-c2ccccc2)n1C	-5	-0.2	25	6	-10	2
15	Cc1ccccc1S(=O)(=O)N1CCN(c2ccc3c(c2)C2CC3CCN2C(=O)OCc2ccccc2)CC1 (stereo not given)	.	-0.6	.	-22	-10	-19
16	CCOc1ccc(CC(=O)N2CCN=C2SCc2ccc([N+](=O)[O-])cc2)cc1	6	1.3	2	-4	-10	-16

Reformatted: results already given
[5] N#Cc1ccc(S(=O)(=O)N2CCN(C(=O)C3CC(=O)N(c4ccc5c(c4)OCCO5)C3)CC2)cc1 (stereo not given)
  TRPML1 inh = -8	TRPML1 ag = -0.3	TRPV1 PAM = 12	CtBP-E1A blk = 24	D2 potentiator = -1	Six1-Eya2 blk = 4

[6] CCn1cc(C(=O)NC(=S)Nc2sc3c(c2C(=O)OC)CCCCCC3)cn1
  TRPML1 inh = -22	TRPML1 ag = 0.5	TRPV1 PAM = -8	CtBP-E1A blk = 0	D2 potentiator = -18	Six1-Eya2 blk = 20

[7] C=CCn1c(C(C)NC(=O)c2ccccc2C)n[nH]c1=S (stereo not given)
  TRPML1 inh = 34	TRPML1 ag = -0.4	TRPV1 PAM = 7	CtBP-E1A blk = -3	D2 potentiator = -17	Six1-Eya2 blk = 2

[8] O=C(c1cccc([N+](=O)[O-])c1)N1CCN(C(=O)c2ccco2)CC1
  TRPML1 inh = -6	TRPML1 ag = -0.6	TRPV1 PAM = 18	CtBP-E1A blk = 3	D2 potentiator = -5	Six1-Eya2 blk = 0

(further entries)
No.	Molecule	TRPML1 inh	TRPML1 ag	TRPV1 PAM	CtBP-E1A blk	D2 potentiator	Six1-Eya2 blk
17	COc1ccc(N(CC(=O)NCCc2ccccc2)C(=O)CCC(=O)Nc2nccs2)cc1	-9	1.3	18	-1	-16	11
18	CN(Cc1ccon1)Cc1cn[nH]c1-c1ccc(-c2ccccc2)cc1	30	-0.6	-1	1	-3	-6
19	CCc1cc2c(=O)n(Cc3ccco3)c(SCc3c(C)noc3C)nc2s1	4	1.4	2	-6	5	-12
20	Cn1c(N)c(C(=O)CSc2nc3ccccc3[nH]2)c(=O)n(C)c1=O	.	.	-5	-13	-4	-2
21	O=C(Nc1cccc(Br)c1)c1cc(=O)c2ccccc2o1	-11	-0.5	6	.	-3	17
22	CCN1CCN(CCNC(=O)c2ccc(/C=C3/Sc4ccccc4N(Cc4cccc(C)c4)C3=O)cc2)CC1	30	0.8	3	-18	-8	5
23	COc1ccc(CN2CCC(=O)NC2=O)cc1	12	-0.1	-9	-2	-10	0
24	O=C(CCc1ccccn1)N1CCCC(N2CCN(c3cccc(C(F)(F)F)c3)CC2)C1 (stereo not given)	9	8.0	16	-3	-21	3

The list goes on.
No.	Molecule	TRPML1 inh	TRPML1 ag	TRPV1 PAM	CtBP-E1A blk	D2 potentiator	Six1-Eya2 blk
25	O=C(Cn1cnc2ccccc2c1=O)c1ccc(OC(F)F)cc1	4	2.4	4	-3	2	0
26	Cc1csc(=Nc2ccccc2)n1CCCN1CCCC1=O	7	1.7	-1	-2	-1	-9
27	OC(CC1CC12c1ccccc1-c1ncccc12)(c1ccccc1)c1ccccc1 (stereo not given)	6	1.3	-4	9	-28	-7
28	C/C(=N\NC(=O)c1nnn(-c2nonc2N)c1CN1CCC(C)CC1)c1ccc(Br)cc1	15	0.2	.	0	-7	-1
29	CCCn1nc(C(=O)Oc2ccc3c(C)cc(=O)oc3c2)c2ccccc2c1=O	28	-0.9	-1	2	-30	0
30	CCOC(=O)C1(C(F)(F)F)N=C(C(F)(F)F)Nc2cc(C)c(C)cc21 (stereo not given)	-4	0.2	19	6	0	4
31	Cc1ncn(C23CC4CC(CC(C4)C2)C3)n1	-9	-0.5	-4	-3	-14	1
32	O=C(Nc1cc(C(F)(F)F)ccc1F)C1Cc2c(-c3ccccc3Oc3ccccc3)ccnc2O1 (stereo not given)	.	0.2	.	-2	-3	1
33	O=C(Nc1ccc(NC(=O)c2cccs2)cc1Cl)c1ccco1	16	1.4	17	-11	-4	-8
